DUX4 txn inh: inhibitors of DUX4-driven ZSCAN4 reporter expression, primary screen, 293T cells, Gaussia and Italica luciferase. 293T-iDUX4 ZSCAN4-Gaussia luciferase reporter, 24 h; hits give low values. activity change, negative = inhibition, % (test concentration not listed). AID 1224904, 2016. actives 0.8% (n = 37,000);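 active = -10% or lower and over 25 points stronger than a control reporter; inconclusive = -10% or lower with a smaller gap; inactive = above -10%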;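 note: 0% = median of neutral control wells and -100% = median of positive control wells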
DUX4 txn inh difference: second read-out of DUX4 txn inh, no call of its own (marks repeat the call); Gaussia minus Italica difference, %; measured here: selective DUX4 reporter inhibition;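 worked out from the two reporters; negative = selective loss of the DUX4 reporter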
DUX4 txn inh control: also measured in DUX4 txn inh; calls as there; activity change, negative = inhibition, %; measured here: Italica tet-on control reporter;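 0 = neutral control and -100 = positive control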
Numbers without * were called inactive; ? = inconclusive; . = no result given. Not all compounds are listed (hit frequency here may not be typical).

Results follow in this order: DUX4 txn inh	DUX4 txn inh difference	DUX4 txn inh control
O=C(C[C@@H]1CC[C@H](NS(=O)(=O)c2cccc(F)c2)[C@H](CO)O1)NCc1ccc2c(c1)OCO2
→ 3.8	6.0	-2.2
CC(=O)N1[C@H](CO)[C@@H](c2ccccc2)[C@@H]1CN(C(=O)c1cccc(F)c1)C(C)C
→ -0.9	-1.4	0.5
O=C(C[C@H]1C[C@@H]2c3cc(NC(=O)Nc4ccc(C(F)(F)F)cc4)ccc3O[C@@H]2[C@@H](CO)O1)NCc1cc(F)ccc1F
→ -4.8	-12.7	7.9
CN1C(=O)c2cc(NC(=O)c3ccc(F)cc3)ccc2OC[C@@H]2O[C@@H](CC(=O)N3CCOCC3)CC[C@H]21
→ -0.2	-1.2	1.1
C[C@@H]1CN([C@@H](C)CO)C(=O)c2cc(NC(=O)NC3CCCCC3)ccc2O[C@H]1CN(C)C(=O)Nc1ccc2c(c1)OCO2
→ 4.8	3.0	1.8
O=C(Nc1ccc(F)cc1)N1C[C@@H]2[C@H](c3ccccc31)[C@H](CO)N2C(=O)Cc1cccnc1
→ -0.6	-4.3	3.8
CCCNC(=O)N1C[C@@H](O)COC[C@@H]2O[C@H](CC(=O)NCCCN3CCOCC3)CC[C@H]21
→ 1.9	-0.3	2.2
CN(C)C(=O)C[C@@H]1CC[C@H]2[C@@H](COC[C@H](O)CN2S(=O)(=O)c2ccccc2)O1
→ 1.9	0.7	1.2
O=C(CCN1CCCCC1)NCC[C@H]1CC[C@@H](NC(=O)C2CCOCC2)[C@H](CO)O1
→ 4.0	-0.4	4.5
CO[C@H]1CN(C)C(=O)c2ccc(NS(=O)(=O)c3ccccc3C)cc2OC[C@H](C)NC[C@@H]1C
→ 13.0	7.4	5.6
CO[C@@H]1CC[C@@H]2CCOc3c(C#N)cccc3C(=O)N(C)[C@@H](C)C(=O)N(C)C[C@H]1O2
→ -1.9	-1.1	-0.8
CCCC#Cc1ccc([C@@H]2[C@H]3CN(CCC)CCCCN3[C@H]2CO)cc1
→ 3.9	-5.2	9.1
COc1cc(CN2CC3(CCN(C(=O)Nc4cccc(F)c4)CC3)c3c(n(C)c4cc(OC)ccc34)[C@H]2CO)cc(OC)c1
→ -37.0*	-27.5*	-9.4*
COc1ccc2c3c(n(C)c2c1)[C@H](CO)NCC31CCN(Cc2ccc(Cl)cc2)CC1
→ ?	.	.
COCCN(C[C@@H]1[C@@H](c2ccccc2)[C@H](CO)N1C(=O)C1CC1)C(C)=O
→ -3.4	-1.9	-1.4

The results go on.
Results follow in this order: DUX4 txn inh	DUX4 txn inh difference	DUX4 txn inh control
C[C@H]1CN([C@@H](C)CO)C(=O)c2cc(C#Cc3ccccn3)cnc2O[C@@H]1CN(C)Cc1cccnc1
→ 2.8	0.9	1.9
CO[C@H](CN(C)S(=O)(=O)c1ccccc1)[C@H](C)CN(Cc1ccccc1Cl)[C@@H](C)CO
→ 1.5	-1.9	3.4
O=S(=O)(N[C@@H]1CC[C@H](CCn2cc(-c3cccnc3)nn2)O[C@H]1CO)c1ccc(Cl)cc1
→ 1.4	-0.6	2.0
CC(=O)N1CCCCN2[C@@H](CO)[C@@H](c3ccc(-c4ccncc4)cc3)[C@@H]2C1
→ 21.6	14.5	7.2
C[C@@H]1CCCCO[C@@H](CN(C)Cc2ccc(C(=O)O)cc2)[C@H](C)CN([C@@H](C)CO)C(=O)c2cc(NS(=O)(=O)c3ccc(F)cc3)ccc2O1
→ -1.6	2.0	-3.6
CCNC(=O)[C@H]1[C@H](CO)[C@H]2Cn3c(ccc(C4=CCCC4)c3=O)[C@@H]1N2Cc1ccncc1
→ 7.6	-1.2	8.8
Cc1ccc(S(=O)(=O)N[C@@H]2CC[C@H](CCNC(=O)C3CCOCC3)O[C@@H]2CO)cc1
→ 0.0	1.1	-1.0
CN1C(=O)c2cc(NC(=O)c3cscn3)ccc2OC[C@H]2O[C@H](CC(=O)N3CCOCC3)CC[C@@H]21
→ -1.8	-0.9	-0.9
CN1C(=O)c2cc(NC(=O)c3cccs3)ccc2OC[C@H]2O[C@H](CC(=O)NCCN3CCCCC3)CC[C@H]21
→ -1.0	-2.1	1.1
C[C@@H]1CN([C@@H](C)CO)C(=O)c2cc(NS(=O)(=O)c3cccs3)ccc2O[C@@H]1CN(C)C(=O)Nc1ccc2c(c1)OCO2
→ 0.2	-1.4	1.6
COCCNC(=O)C[C@@H]1CC[C@@H]2[C@H](COC[C@@H](O)CN2C(=O)Nc2ccc3c(c2)OCO3)O1
→ 5.1	3.0	2.1
C[C@H](CO)N1C[C@H](C)[C@@H](CN(C)C(=O)Nc2ccc3c(c2)OCCO3)OCc2cnnn2CCCC1=O
→ 5.4	-2.2	7.6
COc1ccc(OC(=O)N(C)C[C@H]2OCc3cn(nn3)CCCC(=O)N([C@H](C)CO)C[C@H]2C)cc1
→ -5.4	-6.8	1.4
C[C@@H]1CN([C@@H](C)CO)C(=O)c2cccc(NC(=O)C3CCOCC3)c2O[C@H]1CN(C)S(=O)(=O)c1cn(C)cn1
→ -1.8	0.7	-2.5
O=C(C[C@@H]1C[C@H]2c3cc(NS(=O)(=O)c4ccc(F)cc4)ccc3O[C@H]2[C@H](CO)O1)N1CCCCC1
→ -5.4	0.8	-6.2

The listing continues:
Results follow in this order: DUX4 txn inh	DUX4 txn inh difference	DUX4 txn inh control
O=C(C[C@H]1CC[C@H]2[C@@H](COC[C@H](O)CN2Cc2ccc(C(F)(F)F)cc2)O1)NCCc1ccccc1
→ ?	.	.
O=C(O)C[C@H]1CC[C@@H](NC(=O)c2ccncc2)[C@@H](CO)O1
→ -6.0	-10.0	4.1
COc1cccc(NC(=O)N[C@@H]2C=C[C@H](CC(=O)N3CCOCC3)O[C@@H]2CO)c1
→ -3.3	-4.2	0.9
COc1ccccc1C#Cc1ccc([C@H]2[C@@H](C#N)N(C(=O)C3CCC3)[C@@H]2CO)cc1
→ -0.2	1.1	-1.3
O=C(c1ccccc1F)N1CC(=O)N2[C@H](CO)[C@@H](c3ccc(-c4cccnc4)cc3)[C@H]2C1
→ 4.7	-13.6	18.3
Cc1noc(C)c1NC(=O)Nc1ccc2c(c1)CC(=O)N([C@H](C)CO)C[C@@H](C)[C@@H](CN(C)Cc1ccc(C(F)(F)F)cc1)O2
→ 2.1	-1.0	3.1
OC[C@@H]1[C@H](c2ccccc2)C2(CN(Cc3nccs3)C2)N1CCC(F)(F)F
→ ?	.	.
CCCNC(=O)N[C@@H]1C=C[C@H](CC(=O)N2CCN(C)CC2)O[C@@H]1CO
→ 4.8	-2.1	6.9
COCC(=O)N1CC2(CCN(Cc3nccs3)CC2)c2c(n(C)c3cc(OC)ccc23)[C@H]1CO
→ 19.8	12.6	7.2
O=S(=O)(c1cccs1)N1CCCCN2[C@H](CO)[C@@H](c3ccc(Br)cc3)[C@H]2C1
→ -8.6	-11.9	3.3
C[C@@H]1CN([C@@H](C)CO)C(=O)c2cc(/C=C/c3ccccc3)cnc2O[C@@H]1CN(C)C(=O)C1CCOCC1
→ 0.7	0.9	-0.2
COc1ccc(NC(=O)Nc2ccc3c(c2)[C@H]2C[C@@H](CC(=O)NCC4CC4)O[C@@H](CO)[C@H]2O3)cc1
→ 7.2	7.4	-0.2
C/C=C/c1ccc([C@H]2[C@@H](CO)N(C(=O)NC3CCCCC3)[C@H]2C#N)cc1
→ 1.6	-1.0	2.6
O=C(C[C@H]1C[C@@H]2c3cc(NC(=O)Cc4ccncc4)ccc3O[C@@H]2[C@H](CO)O1)NCC1CC1
→ 0.8	-1.2	2.0
COc1ccc(CN2CC3(CCN(C(=O)C4CCOCC4)CC3)c3c(n(C)c4cc(OC)ccc34)[C@H]2CO)cc1
→ -4.5	-8.5	3.9

(continued)
Results follow in this order: DUX4 txn inh	DUX4 txn inh difference	DUX4 txn inh control
COCC(=O)N1CC(=O)N2[C@H](CO)[C@@H](c3ccc(-c4ccncc4)cc3)[C@H]2C1
→ 10.7	1.8	8.9
CCNC(=O)c1cc2c(c(-c3cccc(-c4cccc(C(=O)N(C)C)c4)c3)n1)[C@@H](CCO)N([S@](=O)C(C)(C)C)C2
→ 0.7	1.4	-0.6
Cc1noc(C)c1S(=O)(=O)Nc1ccc2c(c1)C(=O)N([C@@H](C)CO)C[C@@H](C)[C@H](CN(C)Cc1ccc(C(=O)O)cc1)OCCCC[C@@H](C)O2
→ -0.7	2.7	-3.5
C[C@@H]1CN([C@H](C)CO)C(=O)c2cc(NC(=O)c3ccncc3)ccc2O[C@@H](C)CCCCO[C@@H]1CN(C)C(=O)C1CCCCC1
→ -3.0	-6.9	3.9
CN1c2ccc(C#Cc3cccnc3)cc2[C@@H]2[C@@H](CCN2S(=O)(=O)c2ccc(F)cc2)[C@H]1CO
→ ?	.	.
O=C(c1ccccc1F)N1CC[C@@H]2[C@H]1c1cc(C#Cc3ccc(F)cc3)ccc1N[C@@H]2CO
→ ?	.	.
C[C@H](CO)N1C[C@H](C)[C@@H](CN(C)S(=O)(=O)c2cn(C)cn2)OCc2ccccc2-c2ccccc2C1=O
→ 2.0	-3.4	5.4
COc1cccc(C(=O)Nc2ccc3c(c2)C(=O)N(C)[C@H]2CC[C@@H](CC(=O)NCc4ccccc4F)O[C@@H]2CO3)c1
→ -1.6	-0.5	-1.1
N#C[C@H]1[C@H](c2ccccc2C2=CCCCC2)[C@@H](CO)N1S(=O)(=O)c1ccccc1
→ ?	.	.
CC(=O)N1[C@H](CO)[C@H](c2ccccc2)[C@H]1CN(CC1CCC1)C(=O)CN(C)C
→ -0.5	-1.1	0.6
CN1CCN(C(=O)C[C@H]2CC[C@@H]3[C@H](COC[C@H](O)CN3CC3CCOCC3)O2)CC1
→ 7.6	-1.5	9.0
N#C[C@H]1[C@@H](c2ccccc2C2=CCCC2)[C@@H](CO)N1C(=O)c1cccc(F)c1
→ 1.8	0.9	0.9
CN(C)C(=O)C[C@@H]1CC[C@@H]2[C@H](COC[C@@H](O)CN2Cc2ccc(C(F)(F)F)cc2)O1
→ ?	.	.
Cc1ccccc1S(=O)(=O)N(C)C[C@H]1OCc2cn(nn2)CCCC(=O)N([C@H](C)CO)C[C@H]1C
→ -1.1	-0.9	-0.2
COc1ccccc1-c1cnc2c(c1)C(=O)N([C@H](C)CO)C[C@H](C)[C@@H](CN(C)Cc1cncnc1)O2
→ 3.7	1.7	2.0

(listing goes on)
smiles	DUX4 txn inh	DUX4 txn inh difference	DUX4 txn inh control
CCC(=O)N[C@H]1CC[C@H](CCNC(=O)Nc2ccc(F)cc2)O[C@@H]1CO	-3.3	-2.7	-0.6
COc1ccc(S(=O)(=O)Nc2ccc3c(c2)C(=O)N([C@H](C)CO)C[C@H](C)[C@@H](CN(C)C(=O)c2ccncc2)OCCCC[C@H](C)O3)cc1	1.9	1.0	0.9
N#C[C@@H]1[C@@H](c2ccc(C#Cc3ccccc3F)cc2)[C@H](CO)N1C(=O)C1CC1	1.8	2.3	-0.5
CO[C@H]1CN(C)C(=O)c2ccc(NC(=O)c3cc(C)on3)cc2OC[C@H](C)NC[C@H]1C	-2.6	-3.6	1.0
COc1cccc(S(=O)(=O)N(C)C[C@@H]2OCc3cnnn3CCCC(=O)N([C@H](C)CO)C[C@H]2C)c1	1.4	-6.9	8.3
C[C@@H]1CN([C@H](C)CO)C(=O)CCCn2nncc2CO[C@H]1CN(C)S(=O)(=O)c1cccc(C#N)c1	-2.3	1.5	-3.8
O=C(C[C@H]1CC[C@H]2[C@@H](COC[C@H](O)CN2CCc2ccccc2)O1)NCCCN1CCOCC1	-0.9	-7.9	6.9
C[C@@H]1CN([C@@H](C)CO)S(=O)(=O)c2ccc(/C=C/c3ccccc3)cc2O[C@H]1CN(C)Cc1cccnc1	-1.9	-4.1	2.2
C[C@@H]1CCn2nncc2COC[C@H]2CCCN2C1=O	-0.1	-2.3	2.2
CN(C)C(=O)c1ccc(-c2ccc(C3[C@H]4CNC[C@@H]3N4C(=O)NC3CCCC3)cc2)cc1 (stereo partly specified)	20.8	14.7	6.1
COc1ccc2c3c([nH]c2c1)[C@H](CO)NCC31CCN(C(=O)C2CCOCC2)CC1	11.5	5.5	6.1
COc1ccc(OC(=O)N(C)C[C@@H]2OCc3cn(nn3)CCCC(=O)N([C@H](C)CO)C[C@@H]2C)cc1	0.3	3.3	-3.0
O=C(Cc1cccnc1)N1[C@H](CO)[C@H](c2ccccc2)[C@@H]1CNCC1CCC1	1.0	2.2	-1.2
CCC(=O)N1[C@H](CO)[C@H](c2ccccc2)C12CN(C(=O)Nc1ccccc1F)C2	-5.6	-7.1	1.5
N#C[C@@H]1N[C@H](CO)[C@H]1c1ccc(C#CC2CCCCC2)cc1	0.2	1.2	-1.0
O=C(C[C@@H]1C[C@@H]2c3cc(NC(=O)CC4CC4)ccc3O[C@@H]2[C@@H](CO)O1)NCCN1CCCCC1	-0.4	-1.0	0.7

Rewritten field by field: part of the list above.
> Cc1noc(C)c1NC(=O)Nc1ccc2c(c1)CC(=O)N([C@H](C)CO)C[C@@H](C)[C@@H](CN(C)Cc1ccc(C(F)(F)F)cc1)O2
  DUX4 txn inh = 2.1
  DUX4 txn inh difference = -1.0
  DUX4 txn inh control = 3.1
> OC[C@@H]1[C@H](c2ccccc2)C2(CN(Cc3nccs3)C2)N1CCC(F)(F)F
  DUX4 txn inh = ?
  DUX4 txn inh difference = .
  DUX4 txn inh control = .
> CCCNC(=O)N[C@@H]1C=C[C@H](CC(=O)N2CCN(C)CC2)O[C@@H]1CO
  DUX4 txn inh = 4.8
  DUX4 txn inh difference = -2.1
  DUX4 txn inh control = 6.9
> COCC(=O)N1CC2(CCN(Cc3nccs3)CC2)c2c(n(C)c3cc(OC)ccc23)[C@H]1CO
  DUX4 txn inh = 19.8
  DUX4 txn inh difference = 12.6
  DUX4 txn inh control = 7.2
